# SARS PLpro yeast: inhibitors of SARS-CoV papain-like protease in yeast | S. cerevisiae expressing SARS-CoV PLpro, growth rescue; control for the full effect not named in the record | Potency, µM (top dose mostly 32.9 µM), without a hit: at the top dose activity, positive = growth rescue | 330,000 tested, 0.19% active | AID 485353; active means well fitted rising curve with a large enough effect; inconclusive means small, poorly fitted or top-dose-only effect; inactive means no such curve, though single readings can be large or run the other way; note: 0% is about no effect; nearly all actives have a fitted effect of over 55% in size; growth read by luminescence after 48 h
# Cruzain inh noDet: blocks cruzain activity in detergent-free assay. P25779. Potency, µM, for inactives: max response, negative = inhibition, most hits filed as inhibitors. 200,000 tested, 2.3% active. purified cruzain, Z-FR-AMC fluorescence, no detergent;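 note: plate controls were enzyme without inhibitor for no effect and buffer without enzyme for full effect; nearly all actives have a fitted effect of over 40% in size; top concentration of the series not given in the record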
# Target sequence (P25779 123-467 limits assumed): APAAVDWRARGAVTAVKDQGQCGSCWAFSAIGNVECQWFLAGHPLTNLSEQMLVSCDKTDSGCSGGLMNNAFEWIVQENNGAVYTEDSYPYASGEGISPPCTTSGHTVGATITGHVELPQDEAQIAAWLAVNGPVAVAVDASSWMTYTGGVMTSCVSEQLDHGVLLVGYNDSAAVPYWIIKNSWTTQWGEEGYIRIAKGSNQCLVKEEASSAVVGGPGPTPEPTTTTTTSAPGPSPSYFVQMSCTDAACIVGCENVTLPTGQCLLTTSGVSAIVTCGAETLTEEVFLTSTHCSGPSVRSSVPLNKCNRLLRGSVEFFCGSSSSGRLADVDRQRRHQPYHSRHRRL
#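 Purified cruzain at 1.5 nM, pre-incubated 15 min with compound at room temperature in 100 mM sodium acetate pH 5.5, 5 mM DTT, 0.00005% Triton X-100. Reaction started with 2 uM Z-FR-AMC; AMC fluorescence increase over 60 s gives rate.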
# Cruzain Triton: inhibitors of Trypanosoma cruzi cruzain with detergent; P25779; purified cruzain, Z-FR-AMC fluorescence, 0.01% Triton; Potency, µM, inactives show max response, negative = inhibition, actives largely listed as inhibitors; 200,000 tested, 0.43% active; AID 1478;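 note: plate controls were neutral wells for no effect and buffer without enzyme for full effect; nearly all actives have a fitted effect of over 40% in size; top concentration of the series not given in the record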
#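 In this qHTS format, compounds are incubated with 1.5 nM cruzain for 15 min at room temperature before 2 uM Z-FR-AMC is added. Release of AMC is followed at 360/450 nm, and progress is taken as the 60 s fluorescence difference.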
# RE007 growth inh: less growth of the S. pombe RE007 Vpr strain; Potency, µM (top dose mostly 92.2 µM), for the others: top-dose activity change, negative = less growth; 360,000 tested, 0.21% active; S. pombe RE007 Vpr strain, BacTiter-Glo ATP luminescence, 24 h; control for the full effect not named in the record; active = well fitted falling curve with a large enough effect; inconclusive = small, poorly fitted or top-dose-only effect; inactive = no such curve, though single readings can be large or run the other way;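 note: % is set by controls: 0 for no effect and ±100 for the full control effect; nearly all actives have a fitted effect of over 50% in size; the assay follows cell death caused by Vpr and the record does not say whether a fall means rescue or toxicity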
#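 Fission yeast RE007 carrying one integrated HIV-1 vpr copy, seeded at OD 0.01 in PMG+AL medium with 23 nL pinned compound. Grown 24 h at 30 degrees; viability read by BacTiter-Glo luminescence after 5 min.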
# LASV entry inh: Lassa virus entry inhibition. Lassa virus pseudotype entry inhibition, cell reporter; control for the full effect not named in the record. Potency, µM (titrated, usually from 37.9 µM), for the others: top-dose activity change, negative = inhibition, most hits filed as inhibitors. 300,000 tested, 1.2% active. AID 540256; active means well fitted inhibition curve with a large enough effect; inconclusive means small, poorly fitted or top-dose-only effect, or effect the other way; inactive means flat fitted curve, though single readings scatter; tested in HEK293 cells; note: % is set by controls: 0 for no effect and ±100 for the full control effect; nearly all actives have a fitted effect of over 50% in size; luciferase read-out
# NS1 function inh: inhibitors of influenza NS1 protein function. AID 2326. Potency, µM (highest dose often 46.1 µM), for the others: at the top dose activity, positive = more growth. S. cerevisiae slowed by influenza A NS1, growth recovery by OD600. 270,000 tested, 0.4% active; active means well fitted rising curve with a large enough effect; inconclusive means small, poorly fitted or top-dose-only effect; inactive means no such curve, though single readings can be large or run the other way; note: nearly all actives have a fitted effect of over 50% in size
#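 S. cerevisiae expressing influenza A NS1, grown in glucose, washed, then diluted 1:100 into pH 6.0 -URA galactose medium with 23 nl compound. Growth recovery read as OD600; NS1-free strain serves as control.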
# Marburg entry inh: blocks Marburg virus binding to or entry into cells. Marburg virus pseudotyped entry inhibition, cell reporter; control for the full effect not named in the record; about a third of the inactives were read at about 46 µM. Potency, µM (doses to about 37.8 µM), for the others: at the top dose activity change, negative = inhibition, actives largely listed as inhibitors. 300,000 tested, 1.8% active; active = well fitted inhibition curve with a large enough effect; inconclusive = small, poorly fitted or top-dose-only effect, or effect the other way; inactive = flat fitted curve, though single readings scatter; tested in HEK293 cells; about a fifth of its hits are not listed in these tables; note: % is set by controls: 0 for no effect and ±100 for the full control effect; luciferase read-out
# 2A StopGo: FMDV 2A StopGo reporter, luciferase signal; human cells with a luciferase reporter of 2A StopGo recoding; control for the full effect not named in the record; Potency, µM (series often up to 57.9 µM), for inactives: top-dose signal change, negative = less light; 410,000 tested, 1.2% active; AID 1159524; active = well fitted falling curve with a large enough effect; inconclusive = small, poorly fitted or top-dose-only effect; inactive = no such curve, though single readings can be large or run the other way; tested in HEK293T cells; note: % is set by controls: 0 for no effect and ±100 for the full control effect; nearly all actives have a fitted effect of over 45% in size; luciferase light after 4 h
# Active calls of the source: *; ? = inconclusive; . = no result given; & = joins results of further samples; [ ] = dose if it differs, or a comment. Unless noted, calls come from the whole dose curve; as a rule, active = well fitted curve in the direction sought with a large enough effect; inconclusive = small, poorly fitted or top-dose-only effect, or another doubt; inactive = no such curve, though single readings can be large; an effect the other way counts as inactive or inconclusive. Potency is the fitted concentration of half-maximal effect. Rows were taken by chance. About 4.8% of those tested had a hit in this group.
SMILES	SARS PLpro yeast	Cruzain inh noDet	Cruzain Triton	RE007 growth inh	LASV entry inh	NS1 function inh	Marburg entry inh	2A StopGo
COc1cc(-c2nnc(-c3cc(OC)c(OC)c(OC)c3)o2)cc(OC)c1OC	28%	?	-22%	-9%	-13%	-2%	0%	?
CC1Cc2ccccc2N1S(=O)(=O)c1cccc2nsnc12 (stereo not given)	-5%	-9%	1.2%	-14%	-6%	-50%	-5%	.
CC(CCc1ccccc1)NC(=O)CSc1n[nH]c(-c2ccccc2)n1 (stereo not given)	.	-5%	0.6%	.	?	.	.	-16%
N#CC1=C(N)Oc2c(c(=O)sc3ccccc23)C1c1cccnc1 (stereo not given)	-1%	.	.	0%	?	.	?	-24%
CNC(=S)Nc1ccc(Nc2ccccc2)cc1	8%	10%	-0.5%	0%	1%	-1%	-16%	36%[activator]
C=CCn1c(C(C)NC(=O)c2cccs2)n[nH]c1=S (stereo not given)	3%	-1%	-0.5%	10%	-1%	5%	3%	-19%
CC1(C)CC(=O)C(=Cc2cn(-c3ccccc3)nc2-c2ccc(Cl)cc2)C(=O)C1	4%	?	-3.2%	0%	28%	-8%	0%	?
CCOc1ccccc1N(CC(=O)NCc1ccco1)C(=O)CCC(=O)Nc1nccs1	8%	.	.	2%	-4%	-3%	-14%[46.1 µM]	17%
NC(=O)c1ccc(NS(=O)(=O)c2ccc3ccccc3c2)cc1	7%	.	.	12%	-2%	-3%	?	63%[activator]
CCN(CC)C(=O)CSc1nnc(COc2ccccc2)n1CC	1%	4%	4.5%	8%	13%	8%	3%	-2%
COC(=O)C1CCN(C(c2ccccc2)c2sc3nc(-c4ccco4)nn3c2O)CC1 (stereo not given)	.	9%	-1.6%	.	-1%[46.1 µM]	.	.	-3%
Cc1cccc(Oc2sc(C(=O)c3ccccc3)c(N)c2C#N)c1	0%	-7%	-2.8%	-12%	1.6µM*	-1%	?	?
Cc1nc2n[nH]c(N)c2c2c1CCCC2	-1%	.	.	4%	.	-2%	.	-12%
O=S1(=O)C=C(Sc2nc3ccccc3s2)c2ccccc21	-23%	?	-7.6%	10µM*	?	?	3.7µM*	5µM*
CC(=O)Oc1ccc(NC(=O)CSc2ccccc2)cc1	-5%	-8%	-8.6%	-1%	-1%	5%	?	61%[activator]
Cn1c(-c2ccc([N+](=O)[O-])cc2)nc2ccccc21	-1%	.	.	-21%	-3%[46.1 µM]	-1%	?	36%[activator]
CC(C)CCn1c(Br)nc2c1c(=O)n(CC(N)=O)c(=O)n2C	-13%	-7%	1.8%	-14%	1%	-1%	10%	-20%
Cn1c(=O)[nH]c2c(Cl)nccc21	0%	.	.	34%	.	4%	.	-12%
CN(C(=O)c1ccc2c(c1)CCO2)C(C)(C)C	-1%	.	.	-1%	5%	1%	0%	8%
Cc1ccc2nc(Cn3cc(C(F)(F)F)ccc3=O)cc(=O)n2c1	0%	.	.	2%	-2%[46.1 µM]	.	3%[46.1 µM]	7%
CN1Cc2ccccc2N(CC(=O)NCc2ccccc2)C1=O	0%	.	.	9%	24%[46.1 µM]	.	26%[46.1 µM]	-19%
C=CCN1C(=O)CSc2ccc(C(=O)N3CCC(C)CC3)cc21	5%	-5%	0.0%	8%	3%	0%	-15%	1%
CCC(=O)c1ccc(OCC(O)CN2CCN(S(=O)(=O)c3ccc(NC(C)=O)cc3)CC2)cc1 (stereo not given)	-1%	.	.	-27%	.	-26%	.	?
Cn1cnnc1SCNC(=O)C(F)(F)F	2%	-1%	3.3%	6%	3%	4%	13%	.
O=CN1Cc2ccccc2-c2ccccc2C1	-1%	.	.	7%	?	-6%	1%	6%
N[C@@H](Cc1c[nH]c2ccccc12)c1nnc(SCc2ccc(F)cc2)o1	5%	-1%	-5.7%	14%	0%	-5%	0%&-1%	1%
CC(C)(C)c1ccc(C(=O)N2CCC(c3noc(-c4ccc(S(=O)(=O)N5CCCC5)cc4)n3)CC2)cc1	.	7%	1.0%	.	0%[46.1 µM]	.	-19%[46.1 µM]	-24%
COc1ccc(N2CCN(C(=O)c3ccc(CSc4ccccc4)cc3)CC2)cc1	24%	10%	-7.6%	-13%	3%	1%	-2%	-17%
COc1cccc(N2CCN(C(=O)c3ccc(CS(=O)c4cccc(Cl)c4)o3)CC2)c1 (stereo not given)	.	3%	-6.0%	.	-25%[46.1 µM]	.	.	-22%
CNC(=O)NC(=O)C(C)OC(=O)c1cc2c(s1)CCCCC2 (stereo not given)	?	-4%	4.0%	-8%	?	9%	-12%	-27%
CC(C)(C)C(=O)/C=c1\s/c(=C\c2ccc(-c3ccc([N+](=O)[O-])cc3)o2)c(=O)n1CC(=O)NC(N)=O	0%	.	.	7%	5%	.	-8%[46.1 µM]	-19%
COc1ccc(C(=O)c2ccc(N3CCOCC3)cc2)c(OC)c1	5%	-7%	-2.1%	17%	?	13%	?	0%
CCCCSc1nc(C)cc(SCC(=O)N/N=C/c2ccccc2)n1	-1%	.	.	-11%	-10%[46.1 µM]	.	?	-24%
COc1ccc(OC)c(CNc2ccc3c(c2)CCC3)c1	?	.	.	-12%	-12%[46.1 µM]	11%	1%[46.1 µM]	-5%
Cc1ccc(OCC(=O)Nc2ccc3nc(SCC(=O)N4CCCC4)sc3c2)cc1	.	-13%	-2.2%	.	1%[46.1 µM]	.	4%[46.1 µM]	?
Cc1ccc(-c2cnc(C3CC3)o2)cc1S(=O)(=O)Nc1ccccc1	-10%	.	.	-1%	.	-33%	.	36%[activator]
COc1cc(C(=O)OCC(=O)NC23CC4CC(CC(C4)C2)C3)cc(OC)c1OC	-11%	.	.	11%	?	.	?	?
CC(CNCc1ccc2c(c1)OCO2)NCc1ccc2c(c1)OCO2 (stereo not given)	-6%	-3%	3.0%	-14%	.	3%	.	0%
Cc1ccc(C2=NN(C(=O)CSc3nc(N)cc(N)n3)C(c3ccco3)C2)cc1 (stereo not given)	3%	4%	-7.8%	6%	-1%[46.1 µM]	?	?	24%
CCOC(=O)c1c(-c2ccccc2)csc1NC(=O)c1nc(S(=O)(=O)CC)ncc1Cl	.	-3%	-2.7%	.	-17%[46.1 µM]	.	?	14µM*
CCOc1ccc(S(=O)(=O)NCC2(N3CCCCC3)CCCCC2)cc1	4%	.	.	-17%	-5%	.	?	-13%
CSc1nnc(-c2cc(-c3ccc(C)cc3)nc3ccccc23)o1	3%	4%	-10%	5%	-1%	27%	-17%	0%
O=C(Cn1cnc2cc([N+](=O)[O-])ccc2c1=O)NC(=O)NCc1ccccc1	2%	.	.	19%	4%[46.1 µM]	8%	10%[46.1 µM]	9%
COc1ccc(OCC(O)Cn2cnc(-c3ccc(Br)cc3)c2)cc1 (stereo not given)	11%	?	-19%	-21%	-18%	-4%	-12%	-26%
ClC(/C=N/n1cnnc1)=C/c1ccccc1	1%	.	.	21%	-21%[46.1 µM]	-8%	?	?
COc1ccc(-c2nnc(SCC(=O)NCc3ccco3)n2C)cc1	9%	-7%	0.0%	8%	-4%	6%	-2%	16%
NC(=O)CSCc1nc2ccccc2s1	5%	-1%	-13%	14%	18%	?	12%	34%[activator]
CCc1ccc(-n2nc(C)c3c2NC(=O)CSC3c2ccc(C(=O)OC)cc2)cc1 (stereo not given)	.	-7%	-8.7%	.	11%[46.1 µM]	.	2%[46.1 µM]	?
COc1cc(C(=S)N2CCC(C)CC2)ccc1O	2%	?	?	2%	-15%	-8%	-6%	24%
S=C(NCc1ccco1)N1CCN(c2nc(-c3ccccc3)cs2)CC1	0%	.	.	14%	0%	3%	-20%[46.1 µM]	0%
CCCCc1nnc(NC(=O)c2ccc3[nH]c(=O)c(=O)[nH]c3c2)s1	3%	.	.	0%	.	13%	.	-12%
c1ccc2c(c1)nc(NCC1CCCO1)c1nnnn12 (stereo not given)	-16%	-11%	-6.0%	-21%	.	-2%	.	7%
CCc1ccccc1NC(=O)C1=CC(c2cccs2)=NS(=O)(=O)N1C	4%	.	.	0%	.	10%	.	-24%
COc1ccc(Cn2c(SCc3ccc(C)cc3)nc3cc(OC)c(OC)cc3c2=N)cc1Cl	-29%	?	-18%	29%	10µM*	?	2.8µM*	35µM*
N#Cc1c(NC(=O)CSc2nc(-c3ccco3)cc(C(F)(F)F)n2)sc2c1CCCC2	3%	?	-12%	12%	-18%	-14%	1%	-27%
COc1ccc(C(=O)CSc2nnc(CNc3ccc(C)cc3C)o2)cc1	2%	-13%	-4.3%	3%	0%	9%	-20%	-11%
Clc1ccccc1CSc1ncn(-c2ccccc2)n1	-23%	-9%	-8.2%	-6%	?	-9%	?	46%[activator]

# 4 entries from above in a different format.
# Below each compound – SARS PLpro yeast, Cruzain inh noDet, Cruzain Triton, RE007 growth inh, LASV entry inh, NS1 function inh, Marburg entry inh, 2A StopGo
Cc1ccc(C2=NN(C(=O)CSc3nc(N)cc(N)n3)C(c3ccco3)C2)cc1 (stereo not given)
  3%, 4%, -7.8%, 6%, -1%[46.1 µM], ?, ?, 24%
CCOC(=O)c1c(-c2ccccc2)csc1NC(=O)c1nc(S(=O)(=O)CC)ncc1Cl
  ., -3%, -2.7%, ., -17%[46.1 µM], ., ?, 14µM*
CCOc1ccc(S(=O)(=O)NCC2(N3CCCCC3)CCCCC2)cc1
  4%, ., ., -17%, -5%, ., ?, -13%
CSc1nnc(-c2cc(-c3ccc(C)cc3)nc3ccccc23)o1
  3%, 4%, -10%, 5%, -1%, 27%, -17%, 0%

# Screens (PubChem BioAssay)
